Ecoli growth: E. coli growth inhibition, primary screen, OD600; Escherichia coli growth, 23 h; hits give low values; OD600 absorbance (no concentration beside the values); actives 0.21% (n = 330,000); AID 1053175, 2014;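 active = OD600 absorbance below the run mean of sample wells minus 3.6 SD, in any replicate, cut at about 0.56 in these data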;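 note: stock transfer was 300 nL into about 60 µL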
UCH37 DUB inh: inhibitors of human UCH37 deubiquitinase, primary screen, biochemical, Ub-AMC cleavage, fluorescence; purified proteasome/UCH37; inhibition, % (test concentration not listed); actives 0.33% (n = 330,000); AID 588478, 2011;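 active = mean of two replicates above 20%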;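 note: 0% = compound-free wells with enzyme and 100% = wells lacking proteasome; stock transfer was 100 nL into about 20 µL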
Target sequence (Q9Y5K5 whole entry, looked up): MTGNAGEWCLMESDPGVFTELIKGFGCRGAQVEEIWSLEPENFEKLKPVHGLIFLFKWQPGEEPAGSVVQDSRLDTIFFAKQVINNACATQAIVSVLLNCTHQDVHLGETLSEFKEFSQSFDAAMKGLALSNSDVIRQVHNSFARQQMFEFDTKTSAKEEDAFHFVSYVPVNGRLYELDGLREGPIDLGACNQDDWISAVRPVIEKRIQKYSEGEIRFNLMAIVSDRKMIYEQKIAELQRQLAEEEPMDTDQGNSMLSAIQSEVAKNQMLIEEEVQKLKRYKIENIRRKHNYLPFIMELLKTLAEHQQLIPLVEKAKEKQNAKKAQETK
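Material: human UCH37 enzyme supplied as purified proteasome complex / Amount: 0.15 nM proteasome as dispensed / Buffer or medium: pH 7.4 Tris-HCl (50 mM) with ovalbumin, ATP-MgCl2, DTT / Times: preincubation 30 min, reaction 25 min, room temperature / Technique: AMC fluorescence from Ub-AMC cleavage, excitation 355 nm, emission 460 nm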
Ecoli rRNA inh: reduced GFP signal of wild-type E. coli, primary screen, bacterial rRNA inhibitor project, GFP/RFP fluorescence, OD600, single point. GFP signal change (wild-type ribosome), % (concentration not given with the values). E. coli WT GFP vs humanized-ribosome RFP mutants, 24 h; hits give low values; DMSO median 0, no signal -100. actives 1.6% (n = 350,000);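 active = significant combined selectivity score with lowered wild-type GFP, culture density cut under 30%, mutant RFP and density less affected; inactive = any of these conditions unmet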; note: one replicate is shown; some compounds called inactive have numbers as strong as hits
T cruzi repl: inhibitors of intracellular T. cruzi growth, primary screen, luminescence, NIH3T3 host cells | T. cruzi beta-gal in NIH3T3, 90 h | inhibition, % (concentration not given with the values) | actives 1.4% (n = 300,000) | AID 1885, 2009;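 active = mean inhibition across valid replicates above about 55%, limit read from the data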;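 note: signal also drops with host cell toxicity which is not excluded here; 0% = plate median of DMSO wells and 100% = zero luminescence signal; higher percent means less beta-gal luminescence so fewer parasites; stock transfer was 50 nL into about 50 µL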
MLL AF4-AF9 inh: inhibitors of AF4 peptide binding to AF9, primary screen, biochemical, AlphaScreen, biotin-AF4 peptide, FLAG-AF9, single point; inhibition, % at 10 µM; actives 0.47% (n = 350,000);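 active = every replicate reaching a set inhibition limit, whatever the replicate mean, cut at about 25% in these data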;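 note: 0% = plate neutral control median and 100% = total signal loss; the record names both 10 and 1 µM as test concentration; the first replicate is given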
Target sequence (P42568 whole entry, looked up): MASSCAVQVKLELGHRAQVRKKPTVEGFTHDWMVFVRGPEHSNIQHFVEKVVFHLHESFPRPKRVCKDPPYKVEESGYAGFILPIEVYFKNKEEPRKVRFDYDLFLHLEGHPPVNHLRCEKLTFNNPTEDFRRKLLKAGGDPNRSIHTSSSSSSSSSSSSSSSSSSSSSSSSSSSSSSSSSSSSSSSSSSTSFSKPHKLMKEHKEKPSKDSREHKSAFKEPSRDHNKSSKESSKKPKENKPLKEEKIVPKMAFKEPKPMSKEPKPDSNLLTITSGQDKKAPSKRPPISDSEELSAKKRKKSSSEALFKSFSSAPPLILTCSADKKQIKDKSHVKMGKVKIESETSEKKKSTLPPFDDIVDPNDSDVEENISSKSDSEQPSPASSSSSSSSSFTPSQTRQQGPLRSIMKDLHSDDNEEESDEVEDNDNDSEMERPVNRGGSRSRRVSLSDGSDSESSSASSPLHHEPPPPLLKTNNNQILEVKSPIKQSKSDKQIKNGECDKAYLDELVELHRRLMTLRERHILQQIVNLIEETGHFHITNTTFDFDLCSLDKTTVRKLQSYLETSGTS
A1 inh: caspase 3/7 activation in MEF A1-2A-BIM cells, primary screen, A1 inhibitor project, cell-based, luminescence, HTS. caspase activation, % (concentration not given with the values). Caspase-Glo 3/7 luminescence, 3 h; percent of clofoctol response, vehicle zero. actives 0.066% (n = 330,000). AID 2462, 2010;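 active = over half of replicate activation scores above 10%, or exactly half above 10 with the replicate mean above 10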;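 note: wells of about 30 µL received 50 nL stock; many hits fall short of the cut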
FGF22 binding: binders of human FGF22 protein, primary screen, FGF22 synaptogenesis inhibitor project, biophysical, thermal shift, single point. recombinant FGF22 thermal shift, SYPRO orange fluorescence; percent of sucrose octasulfate shift, DMSO zero. calls only at 9.99 µM. actives 1.5% (n = 340,000);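 active = melting point raised past a set limit in the mean and every replicate; three in four hits are not shown here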
Target sequence (Q9HCT0 whole entry, looked up): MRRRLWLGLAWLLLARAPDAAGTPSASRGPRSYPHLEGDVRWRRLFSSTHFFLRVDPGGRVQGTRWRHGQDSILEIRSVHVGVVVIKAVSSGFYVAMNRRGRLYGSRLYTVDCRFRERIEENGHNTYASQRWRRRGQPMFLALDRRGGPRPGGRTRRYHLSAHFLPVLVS
Beta cell apopt: inhibitors of cytokine-induced beta cell apoptosis, primary screen, luminescence; INS-1E cytokine-induced death, ATP luminescence, 48 h; percent of positive-control rescue, neutral wells zero; protection from apoptosis, % (concentration not given with the values); actives 0.8% (n = 300,000);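 active = all replicates at 75% or more, or half of them and the mean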;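 note: 0% = cytokine-treated negative control wells and 100% = positive control rescue; higher means more ATP so stronger rescue from cytokine killing; wells of about 40 µL received 100 nL stock; the first replicate is given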
Ecoli rRNA inh OD600: also measured in Ecoli rRNA inh; calls as there; OD600 change, %; measured here: OD600 growth;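 optical density of the mix in the first replicate; 0 = DMSO median and -100 = no signal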
Ecoli rRNA inh RFP: second read-out of Ecoli rRNA inh, no call of its own (marks repeat the call); RFP signal change, %; measured here: RFP humanized mutant strains;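 first replicate; 0 = DMSO median and -100 = no signal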
* = called active by the depositor; i = inactive; . = no result given. These rows are one share of the data; count on the stated rates, not on these rows.

SMILES	Ecoli growth	UCH37 DUB inh	Ecoli rRNA inh	Ecoli rRNA inh OD600	Ecoli rRNA inh RFP	T cruzi repl	MLL AF4-AF9 inh	A1 inh	FGF22 binding	Beta cell apopt
O=C(COC(=O)c1cccnc1Nc1cccc(C(F)(F)F)c1)NCCN1C(=O)CSC1=O	0.63	-0.6	.	.	.	4	.	0.1	.	-2
CCN(CC)CCNC(=O)c1ccccc1N	0.65	-21	.	.	.	-9	.	-1.1	.	-3
CC(C)CN(C(=O)COC(=O)c1ccc2ccccc2c1)c1c(N)n(Cc2ccccc2)c(=O)[nH]c1=O	0.7	1.3	1	3	-1.3	3	0.0	0.1	i	12
CC(C)C(=O)N[C@@H]1c2ccccc2CC[C@@H]1OCc1ccccc1	0.7	1.7	26	20	1.7	.	-8.7	.	i	.
CCc1ccc(OCC(=O)OCC(=O)NCCNC(=O)COC(=O)COc2ccc(CC)cc2)cc1	0.68	-1.6	6	8	4.6	-11	-1.0	0.3	i	4
COc1cccc(N2C(=O)CN(Cc3cc(OC)c(OC)c(OC)c3)C2=S)c1	0.7	2.0	7	4	6.2	-8	-2.0	-1.0	i	-9
Clc1ccc2nc(-c3ccncc3)cc(-c3ccccc3)c2c1	0.63	1.1	.	.	.	-5	.	0.6	.	-4
CN(C)CCCn1c(=O)n(Cc2ccco2)c(=O)c2c3c(sc21)CCCCC3	0.69	5.9	-26*	-4.0*	3.7*	52	.	0.5	i	3
Cc1ccc(N(CCO)C(=S)Nc2ccccc2)cc1	0.73	2.5	16	14	4.6	3	-4.9	-0.8	i	5
Cc1cccc(Sc2c([N+](=O)[O-])ncn2C)c1	0.62	4.4	.	.	.	8	.	0.1	.	-19
Nc1cc2c(cc1Cl)N(Cc1ccccc1)C(=O)CO2	0.69	0.4	-3	0	-3.5	.	4.0	1.5	i	-8
Cc1nc(N2CCN(Cc3ccccc3)CC2)nc2c1C(=O)CC(C)C2 (stereo not given)	0.71	4.9	.	.	.	71*	.	-1.2	.	-3

A few values from above:
T cruzi repl result of CN(C)CCCn1c(=O)n(Cc2ccco2)c(=O)c2c3c(sc21)CCCCC3 : 52
T cruzi repl result of Cc1cccc(Sc2c([N+](=O)[O-])ncn2C)c1 : 8
Ecoli rRNA inh RFP result of Nc1cc2c(cc1Cl)N(Cc1ccccc1)C(=O)CO2 : -3.5
T cruzi repl result of COc1cccc(N2C(=O)CN(Cc3cc(OC)c(OC)c(OC)c3)C2=S)c1 : -8

Additional entries follow:
SMILES	Ecoli growth	UCH37 DUB inh	Ecoli rRNA inh	Ecoli rRNA inh OD600	Ecoli rRNA inh RFP	T cruzi repl	MLL AF4-AF9 inh	A1 inh	FGF22 binding	Beta cell apopt
O=C(CC(c1ccccc1)c1ccccc1)Nc1nn[nH]n1	0.63	3.4	-13	4	2.2	-24	-1.8	1.1	i	1
Cc1ccc(S(=O)(=O)N2C[C@@H]3[C@H]4CC[C@H](C4)[C@@H]3[C@@H](C)[C@@H]2c2ccn(Cc3ccccc3)c2)cc1	0.7	-0.1	11	5	1.1	.	-0.2	.	i	.
Cc1cc(C)cc(N(C(C)C(=O)N2CCCCC2)S(C)(=O)=O)c1 (stereo not given)	0.75	-5.6	3	14	-1.9	-6	.	-0.5	.	-3
C=CCOc1ccc(/C=C/C(=O)OCC(=O)NC(C)c2ccc(F)cc2)cc1 (stereo not given)	0.66	-16	1	0	-0.8	-14	5.4	-0.6	i	-1
O=C(Nc1ccc2c(c1)OCO2)C1CC(c2c(F)cccc2Cl)=NO1 (stereo not given)	0.66	4.7	-7	-11	-1.9	-7	2.0	1.3	i	15
CC(C)(C)NC(=O)CN(C(=O)c1ccc(Cl)nc1)c1cccc2ccccc12	0.67	-0.2	0	5	4.0	15	-3.0	0.9	i	-1
CC(C)(C)NC(=S)NC1CC1	0.68	3.5	13	13	1.7	-25	2.0	0.3	i	-1
CC1CCCCN1C(=S)Nc1ccc(OC(F)F)cc1 (stereo not given)	0.64	0.9	.	.	.	-2	.	0.1	.	-6
Nc1cccc2cc(S(=O)(=O)O)ccc12	0.73	-120	16	11	53	.	-3.6	.	i	.
CN1CCN(NC(=S)Nc2ccc(OC(F)F)cc2)CC1	0.7	0.9	16	7	-1.3	6	-2.1	0.0	i	-4
COc1ccc(CCN2CC(C(=O)Nc3ccc(S(C)(=O)=O)cc3)CC2=O)cc1OC (stereo not given)	0.69	-2.0	4	10	0.8	-14	-0.4	-0.5	i	-1
CCCCOC(=O)Cn1c(=N)n(CCN2CCOCC2)c2ccccc21	0.62	1.8	.	.	.	-7	.	0.2	.	.
Cc1cc(C)nc(NS(=O)(=O)c2ccc(NC(=O)CCCN3C(=O)c4ccccc4C3=O)cc2)n1	0.65	1.1	.	.	.	-5	.	-0.6	.	-3
Nn1c(SCc2nc3ccccc3[nH]2)nnc1C1CCCCC1	0.73	-3.8	.	.	.	-1	.	1.2	.	-2
CCCSc1nc2c(cnn2-c2ccccc2)c(=O)[nH]1	0.74	3.9	3	0	1.1	4	-4.9	0.5	i	-1
COc1cc(/C=N/Nc2cccc(C)c2)ccc1OC(=O)c1ccco1	.	.	4	8	-0.9	-1	2.6	1.2	i	1
O=[N+]([O-])c1cc(-c2nc(-c3ccncc3)no2)ccc1Cl	0.67	0.3	.	.	.	-6	.	-1.0	.	3
CCCCNC(=O)CC1N=C2c3ccccc3N=C(SCC(=O)Nc3ccccc3C)N2C1=O (stereo not given)	0.7	-23	.	.	.	0	.	0.4	.	0
CN(Cc1nc2ccccc2n1C)S(=O)(=O)c1ccc(Cl)cc1	0.82	2.6	.	.	.	-13	.	0.9	.	1
COc1ccc(OC)c(-c2csc(NC(=O)C3COc4ccccc4O3)n2)c1 (stereo not given)	0.74	5.1	-23*	-12*	0.3*	16	-0.6	-0.1	i	-3
COc1ccc2[nH]c(C(=O)NCCCn3ccnc3)cc2c1	0.69	-72	.	.	.	-14	.	-0.5	.	-4
OC(CN1CCC(Cc2ccccc2)CC1)c1ccccc1 (stereo not given)	0.65	3.5	2	-23	-1.5	0	-19	-0.6	i	-1
CC(=O)NC(CC(=O)OCC(=O)Nc1cc(S(=O)(=O)N2CCCCC2)ccc1C)c1ccccc1 (stereo not given)	0.68	2.0	9	8	1.1	.	0.6	-0.1	i	-6
Cc1cccc(OC(=O)c2cccnc2)c1C	0.7	3.3	6	10	3.0	-6	-6.7	1.8	i	-4
CCOC(=O)CN(C(=O)COC(=O)C1(c2ccccc2)CC1)c1ccc(F)cc1	0.71	4.0	-5	3	-1.8	-3	-2.2	0.5	i	2
CC(=O)c1sc(Nc2nc3cc4c(cc3s2)OCO4)nc1C	0.69	-23	9	3	-1.4	-12	-1.5	.	i	.
CCN1CCN(CCNC(=O)CCCn2nc(C)c3c(C)n(-c4ccc(C)cc4)nc3c2=O)CC1	0.64	1.7	5	-1	-1.3	-1	0.5	-0.1	i	3
CCCCN(CC)C(=O)CN1C(=O)c2ccccc2C1=O	0.76	4.6	.	.	.	-15	.	0.2	.	-3
COc1ccc(CN(C)C(=O)CNC(=O)c2ccc3ccccc3c2)c(OC)c1	0.66	3.7	-7	-14	-2.0	-2	-3.5	-0.1	i	0
CS(=O)(=O)N1CCc2cc(C(=O)Nc3ccc(Cl)cc3)ccc21	.	.	9	5	3.3	0	3.1	-0.4	.	2
O=C(Nc1cc2c3c(c1)CC(=O)N3CCC2)c1ccc(Br)cc1	0.66	5.4	-11	-16	-0.4	3	-0.4	0.5	i	1
COc1ccc(C(=O)NCCN2C(=O)S/C(=C\c3cccnc3)C2=O)c(OC)c1OC	0.67	3.5	.	.	.	4	.	0.3	.	-3
O=c1c2[nH]c3ccc(F)cc3c2ncn1CCN1CCN(Cc2ccccc2)CC1	0.77	-2.6	2	5	0.6	16	-3.7	0.7	i	5
COCCN(CCOC)S(=O)(=O)c1ccc(C(=O)Nc2sc3c(c2C(N)=O)CCCCC3)cc1	0.67	-41	2	10	3.4	4	2.0	-0.4	i	-8
Cn1c(CCCOc2ccc(Cl)cc2Cl)n[nH]c1=S	0.68	1.2	-6	-5	0.9	11	-5.9	-0.6	.	0
O=C(/C=C/c1ccccc1Cl)Nc1ccc(-c2nnc3n2CCCCC3)cc1	0.68	3.3	.	.	.	-17	.	-0.6	.	4
CCOc1cc(C)nc(N2CCN(C3CCCCC3)CC2)n1	0.67	4.0	.	.	.	-2	.	-0.2	.	-2
COc1ccccc1CN(C)C(=O)c1sccc1-c1ccccc1	0.73	0.7	-38	-52	-2.5	9	-1.3	1.5	i	2
COc1cc(C)c(S(=O)(=O)n2nnc3ccccc32)cc1C	0.65	1.6	.	.	.	-12	.	-1.1	.	-3
CN(C)C(CNC(=O)CNC(=O)c1ccc(Br)cc1)c1ccccc1 (stereo not given)	0.72	-1.6	1	7	-1.1	4	3.2	0.0	i	0
COc1ccc(CNC(=O)c2cc(-c3cc(C)ccc3O)n[nH]2)cc1	0.7	5.6	4	-2	2.3	-7	-1.7	0.2	i	0
Cc1sc2c(c1C)c(=O)nc1scc(CC(=O)O)n12	0.71	0.5	.	.	.	-2	.	0.6	.	-10
Cc1sc2ncn(CC(=O)NCc3ccccc3)c(=O)c2c1C	0.71	2.4	9	14	1.8	7	.	1.1	i	-1
O=c1cc(CSc2nnc(COc3ccccc3)n2-c2ccccc2)c2ccccc2[nH]1	0.68	4.6	1	7	3.9	16	8.8	0.5	i	-1
COc1ccc(-n2c(SC)nc(O)cc2=O)cc1	0.73	5.2	.	.	.	-12	.	-0.5	.	-3
CCN(CC)CCNC(=O)CCn1c(=S)[nH]c2cc3c(cc2c1=O)OCO3	0.7	1.2	.	.	.	-4	.	1.3	.	-1
O=C(CSc1nnc(CNC(=O)c2cccs2)o1)c1ccccc1	0.71	4.9	.	.	.	-1	.	-0.3	.	-3
CCC(C)[C@H](NC(=O)NCCCOC(C)C)C(=O)OC (stereo not given in full)	0.68	3.4	17	9	3.6	.	9.7	2.6	i	.

Reprinted at random: 2 entries already listed
SMILES	Ecoli growth	UCH37 DUB inh	Ecoli rRNA inh	Ecoli rRNA inh OD600	Ecoli rRNA inh RFP	T cruzi repl	MLL AF4-AF9 inh	A1 inh	FGF22 binding	Beta cell apopt
CC(C)(C)NC(=O)CN(C(=O)c1ccc(Cl)nc1)c1cccc2ccccc12	0.67	-0.2	0	5	4.0	15	-3.0	0.9	i	-1
CCOc1cc(C)nc(N2CCN(C3CCCCC3)CC2)n1	0.67	4.0	.	.	.	-2	.	-0.2	.	-2
